# Screening data deposited in PubChem BioAssay by National Center for Advancing Translational Sciences (NCATS).
# Cruzain Triton: blocks cruzain activity in presence of Triton detergent; purified cruzain, Z-FR-AMC fluorescence, 0.01% Triton; Potency, µM, inactives show max response, negative = inhibition, usual class: inhibitors; 200,000 tested, 0.43% active; AID 1478; active = well fitted curve in the direction sought with a large enough effect; inconclusive = small, poorly fitted or top-dose-only effect, or another doubt; inactive = no such curve, though single readings can be large; an effect the other way counts as inactive or inconclusive;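 note: plate controls were neutral wells for no effect and buffer without enzyme for full effect; nearly all actives have a fitted effect of over 40% in size; top concentration of the series not given in the record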
# Target sequence (P25779 123-467 limits assumed): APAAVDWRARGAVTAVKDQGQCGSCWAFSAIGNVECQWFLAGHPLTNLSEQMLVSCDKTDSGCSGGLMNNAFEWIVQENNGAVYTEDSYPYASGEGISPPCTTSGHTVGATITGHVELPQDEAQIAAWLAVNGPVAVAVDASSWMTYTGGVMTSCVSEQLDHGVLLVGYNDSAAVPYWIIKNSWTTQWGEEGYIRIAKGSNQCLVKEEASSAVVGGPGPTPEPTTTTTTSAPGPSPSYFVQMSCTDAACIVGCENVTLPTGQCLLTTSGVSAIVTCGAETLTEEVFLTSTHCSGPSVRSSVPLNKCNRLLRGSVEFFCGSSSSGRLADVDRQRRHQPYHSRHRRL
#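 Purified cruzain (1.5 nM final) was preincubated with compounds for 15 min at room temperature in 100 mM sodium acetate pH 5.5, 5 mM DTT, 0.01% Triton X-100. Reaction started with 2 uM Z-FR-AMC; AMC fluorescence change over 60 s gave activity.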
# MARV entry inh: inhibitors of Marburg virus binding or cell entry | Marburg virus pseudotyped entry inhibition, cell reporter; control for the full effect not named in the record; about a third of the inactives were read at about 46 µM | Potency, µM (titrated, usually from 37.8 µM), for the others: top-dose activity change, negative = inhibition, hits mostly inhibitors | 300,000 tested, 1.8% active | AID 540276; active = well fitted inhibition curve with a large enough effect; inconclusive = small, poorly fitted or top-dose-only effect, or effect the other way; inactive = flat fitted curve, though single readings scatter; tested in HEK293 cells; about a fifth of its hits are not listed in these tables; note: % is set by controls: 0 for no effect and ±100 for the full control effect; luciferase read-out
# StopGo reporter: lowers the luciferase signal of an FMDV 2A StopGo reporter | human cells with a luciferase reporter of 2A StopGo recoding; control for the full effect not named in the record | Potency, µM (top dose mostly 57.9 µM), inactives show at the highest dose signal change, negative = less light | 410,000 tested, 1.2% active; active = well fitted falling curve with a large enough effect; inconclusive = small, poorly fitted or top-dose-only effect; inactive = no such curve, though single readings can be large or run the other way; tested in HEK293T cells; note: % is set by controls: 0 for no effect and ±100 for the full control effect; nearly all actives have a fitted effect of over 45% in size; luciferase light after 4 h
# RE007 growth inh: less growth of the S. pombe RE007 Vpr strain | S. pombe RE007 Vpr strain, BacTiter-Glo ATP luminescence, 24 h; control for the full effect not named in the record | Potency, µM (doses to about 92.2 µM), for the others: at the highest dose activity change, negative = less growth | 360,000 tested, 0.21% active | AID 651644; active = well fitted falling curve with a large enough effect; inconclusive = small, poorly fitted or top-dose-only effect; inactive = no such curve, though single readings can be large or run the other way;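 note: % is set by controls: 0 for no effect and ±100 for the full control effect; nearly all actives have a fitted effect of over 50% in size; the assay follows cell death caused by Vpr and the record does not say whether a fall means rescue or toxicity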
#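 Fission yeast RE007 carrying one integrated HIV-1 vpr copy, seeded at OD 0.01 in PMG+AL medium with 23 nL pinned compound. Grown 24 h at 30 degrees; viability read by BacTiter-Glo luminescence after 5 min.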
# SARS PLP yeast: inhibitors of SARS-CoV papain-like protease in yeast; Potency, µM (titrated, usually from 32.9 µM), inactives show top-dose activity, positive = growth rescue; AID 485353; 330,000 tested, 0.19% active; S. cerevisiae expressing SARS-CoV PLpro, growth rescue; control for the full effect not named in the record; note: 0% is about no effect; nearly all actives have a fitted effect of over 55% in size; growth read by luminescence after 48 h
# NS1 function inh: blocks influenza NS1 protein function | S. cerevisiae slowed by influenza A NS1, growth recovery by OD600 | Potency, µM (top dose mostly 46.1 µM), without a hit: top-dose activity, positive = more growth | 270,000 tested, 0.4% active | AID 2326; note: actives are rising curves; nearly all actives have a fitted effect of over 50% in size
#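 Growth recovery, yeast-based: influenza A NS1 expressed in S. cerevisiae causes slow growth, and suppressors are detected by OD600. The parent strain without NS1 is used as positive control.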
# Cruzain inh noDet: blocks cruzain activity in detergent-free assay; P25779; purified cruzain, Z-FR-AMC fluorescence, no detergent; Potency, µM, without a hit: max response, negative = inhibition, hits mostly inhibitors; 200,000 tested, 2.3% active; active = well fitted curve in the direction sought with a large enough effect; inconclusive = small, poorly fitted or top-dose-only effect, or another doubt; inactive = no such curve, though single readings can be large; an effect the other way counts as inactive or inconclusive;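 note: plate controls were enzyme without inhibitor for no effect and buffer without enzyme for full effect; nearly all actives have a fitted effect of over 40% in size; top concentration of the series not given in the record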
#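 Purified cruzain at 1.5 nM, pre-incubated 15 min with compound at room temperature in 100 mM sodium acetate pH 5.5, 5 mM DTT, 0.00005% Triton X-100. Reaction started with 2 uM Z-FR-AMC; AMC fluorescence increase over 60 s gives rate.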
# LASV entry inh: blocks Lassa virus binding to or entry into cells | Potency, µM (titrated, usually from 37.9 µM), for the others: top-dose activity change, negative = inhibition, hits mostly inhibitors | Lassa virus pseudotype entry inhibition, cell reporter; control for the full effect not named in the record | AID 540256 | 300,000 tested, 1.2% active; active means well fitted inhibition curve with a large enough effect; inconclusive means small, poorly fitted or top-dose-only effect, or effect the other way; inactive means flat fitted curve, though single readings scatter; tested in HEK293 cells; note: % is set by controls: 0 for no effect and ±100 for the full control effect; nearly all actives have a fitted effect of over 50% in size; luciferase read-out
# An asterisk follows results filed as active; ? = inconclusive; nt = not tested or not shown; & = joins results of further samples; [ ] = dose if it differs, or a comment. Unless noted, calls come from the whole dose curve; as a rule, active means well fitted rising curve with a large enough effect; inconclusive means small, poorly fitted or top-dose-only effect; inactive means no such curve, though single readings can be large or run the other way. Potency is the fitted concentration of half-maximal effect.
SMILES,Cruzain Triton,MARV entry inh,StopGo reporter,RE007 growth inh,SARS PLP yeast,NS1 function inh,Cruzain inh noDet,LASV entry inh
Cc1ccc(-c2cc(C(=O)NCCCN3CCOCC3)c3ccccc3n2)cc1,nt,-6.8%,7.1%,-7.5%,2.0%,nt,nt,13.8%
COc1ccc(-n2c(-c3ccc(Br)cc3)c[n+]3c2CCC3)cc1,nt,?,?,-15.8%,-7.9%,nt,nt,?
CN1C(=O)/C(=C/c2ccco2)SC1=Nc1cccc(C(=O)O)c1,nt,?,9.1%,-4.4%,-0.6%,10.3%,nt,22.9%
CCn1cc2nc(SCC(=O)Nc3ccc(OC)c(Cl)c3)n(Cc3ccc(OC)cc3)c(=O)c2n1,8.0%,-4.7%[46.1 µM],-0.5%,nt,nt,nt,-2.6%,7.5%[46.1 µM]
CC1CN(Cc2ccccc2)C(=S)N(c2ccccc2)C1=O (stereo unspecified),nt,1.2%[46.1 µM],-7.8%,8.7%,nt,nt,nt,0.9%[46.1 µM]
N#CC1=C(N)OC(c2ccccc2)=C(C#N)C1c1ccc2c(c1)OCO2 (stereo unspecified),-4.8%,11.8%,-2.1%,-4.8%,-8.5%,-80.4%,-4.4%,-0.5%
COc1ccc(OCC(=O)Nc2c(C(=O)N(CCN(C)C)Cc3ccco3)oc3ccccc23)cc1,nt,nt,-10.1%,1.2%,2.9%,-15.5%,nt,nt
OCC1CCCCN1CC(O)COC(c1ccc(F)cc1)c1ccc(F)cc1 (stereo unspecified),nt,nt,-6.7%,-8.7%,1.2%,-3.4%,nt,nt
COc1ccccc1N=Cc1c(O)c2ccccc2oc1=O,-1.7%,?,21.7%,-16.0%,-11.8%,-7.5%,-7.5%,7.6%
O=c1[nH]c(CNCc2cccnc2)nc2ccccc12,nt,7.5%[46.1 µM],-15.7%,3.2%,2.5%,2.5%,nt,18.7%[46.1 µM]
O=C(Nc1ccc(C(=O)N2CCCCC2)cc1)C1CCCCC1,0.3%,14.8%,28.9%,2.8%,3.6%,0.3%,-8.6%,-23.1%
NC(=O)c1ccc(-n2nnnc2SCC(=O)Nc2ccccc2F)cc1,nt,10.6%,-19.5%,6.9%,0.4%,4.3%,nt,9.6%
O=C(/C=N/O)NCCCN1CCOCC1,1.2%,-35.6%,-19.8%,nt,19.4%,?,-8.0%,-3.4%
Cc1cc(OCC(=O)NNC(=O)c2ccncc2)cc(C)c1Cl,nt,nt,5.2%,-0.5%,5.1%,3.7%,nt,nt
COc1cccc(NC(=O)CSc2nc(O)c(C/C=C/c3ccccc3)c(=O)[nH]2)c1,-9.5%,14.2%[46.1 µM],19.1%,nt,nt,nt,-0.5%,-1.8%[46.1 µM]
CCN1CCN(C(=O)COCc2cc(-c3ccc4c(c3)OCO4)on2)CC1,nt,-0.9%[46.1 µM],11.1%,-4.1%,0.6%,3.5%,nt,?
CCOCCCNC(=O)C(NC(=O)c1ccc(NC(C)=O)cc1)c1ccc(Cl)cc1 (stereo unspecified),6.7%,18.0%,0.1%,1.2%,7.2%,0.4%,7.1%,-11.3%
Cc1ccc(S(=O)(=O)NCC(=O)NCC(=O)NCCc2ccccc2F)cc1C,nt,-11.1%,-5.8%,17.4%,1.6%,nt,nt,14.1%
O=C(OCc1nnc(-c2ccc(Cl)cc2)o1)c1ccncc1,1.3%,21.7%[46.1 µM],13.7%,32.6%,-4.4%,-64.5%,-1.4%,3.0%
COc1cc(/C=C/C(=O)NC(=O)c2ccccc2O)ccc1O,nt,nt,40.1%[activator],-12.6%,1.3%,-5.2%,nt,nt
COCc1cc(C)n(CC(=O)OC)c(=O)c1C#N,nt,11.3%[46.1 µM],-7.1%,4.6%,0.5%,-1.7%,nt,11.2%
Cc1cc(C)nc(NS(=O)(=O)c2ccc(NC(=O)C(C)C)cc2)n1,nt,nt,16.0%,6.2%,0.3%,-14.0%,nt,nt
Cc1cccc(OCCCCn2c(CO)nc3ccccc32)c1,nt,nt,?,-10.9%,-2.4%,-21.9%,nt,nt
Cc1c(C=O)c2ccccc2n1CCOc1ccccc1F,nt,nt,?,0.3%,?,-10.8%,nt,nt
CCOC(=O)c1cc2sccc2n1CC(=O)N1c2ccccc2CC1C (stereo unspecified),4.0%,-38.1%,17.0%,11.5%,-3.7%,6.2%,?,?
Cc1ccccc1-c1ccc(Nc2ccc(N3CCOCC3)cc2)nn1,-9.4%,8.4%,3.8%,-3.5%,-1.1%,-17.6%,25.1µM*,-2.2%
CC(=O)N1CCC(C(=O)NCCOc2cccc(C)c2)CC1,nt,-3.9%[46.1 µM],2.2%,2.1%,6.3%,13.4%,nt,-6.8%[46.1 µM]
Nc1cc(F)ccc1N1CCCCCC1,nt,1.2%[46.1 µM],1.4%,-0.3%,-3.3%,nt,nt,1.4%[46.1 µM]
Cc1ccc(NC(=O)CCn2nc([N+](=O)[O-])cc2C)nc1,-4.3%,-9.0%,-20.6%,-5.9%,2.4%,20.4%,-1.9%,3.5%
O=C(CNc1cccc(S(=O)(=O)N2CCOCC2)c1)Nc1cccc(Br)c1,nt,?,-10.2%,-4.1%,-1.1%,nt,nt,-21.2%
CCOc1ccc(NC(=O)CCS(=O)(=O)c2cc3c4c(c2)CCN4C(=O)CC3)cc1,-0.3%,nt,-6.0%,nt,nt,nt,-10.8%,-3.1%[46.1 µM]
O=C(CN1C(=O)CNC1=O)Nc1ccc(Cl)cc1,nt,nt,-4.3%,6.4%,1.4%,0.1%,nt,nt
O=C(O)c1cc(S(=O)(=O)O)ccc1O,3.3%,-1.0%,-20.3%,7.3%,4.0%,3.2%,0.8%,11.1%
COc1ccc(S(=O)(=O)N2CCCC2C(=O)NCc2ccccc2Cl)cc1 (stereo unspecified),nt,-18.4%[46.1 µM],-22.3%,11.4%,0.7%,-4.4%,nt,-20.5%
Cc1ccc(C(C)c2c(C)c([N+](=O)[O-])cc(C)c2[N+](=O)[O-])cn1 (stereo unspecified),nt,?,-20.4%,1.2%,3.2%,-11.0%,nt,?
CC(=O)c1ccc(OC(C)C)c(CSc2nc(O)cc(=O)[nH]2)c1,0.2%,15.5%,-8.7%,9.7%,2.6%,4.8%,-14.0%,6.8%
CCC1(c2ccc(F)cc2)NC(=O)N(CC(=O)c2cc(C)n(C3CC3)c2C)C1=O (stereo unspecified),nt,-2.1%,-10.3%,12.0%,2.7%,nt,nt,?
O=S(=O)(NCc1cccs1)c1ccc(Cl)s1,nt,nt,44.8%[activator],-4.6%,-7.6%,-16.1%,nt,nt
COc1ccc(NC(=O)c2c3c(nc4ccccc24)CCC3)cc1S(=O)(=O)N1CCOCC1,-7.6%,18.7%,-9.5%,nt,-2.3%,21.5%,10.4%,-3.3%
COC(=O)C(C)Sc1nnc(SC(C)C(=O)OC)s1 (stereo unspecified),3.8%,-5.8%,-6.1%,5.1%,-9.9%,-9.2%,3.5%,2.7%
COc1cccc(NC(=O)Cc2nnc(SCC(=O)c3ccccc3)n2C)c1,-5.1%,3.8%&3.8%,-9.2%,-4.6%,-2.3%,7.94µM*,-11.2%,1.1%
CC(=O)c1cccc(S(=O)(=O)NCCc2csc3nc(-c4ccc(F)cc4)nn23)c1,-3.5%,nt,9.5%,nt,nt,nt,5.2%,-17.4%[46.1 µM]
CC(=O)Nc1cc(C(=O)O)ccc1S(=O)(=O)c1ccc(Cl)cc1,-3.0%,-2.3%,-20.7%,-2.4%,1.2%,?,7.0%,-13.5%
COc1ccc(NC(=S)NCCc2c[nH]c3ccccc23)cc1,-5.3%,-0.6%,15.3%,2.7%,-1.0%,-30.0%,5.5%,?
COc1ccc(S(=O)(=O)NCCc2sc(-c3ccccc3)nc2C)cc1F,-6.5%,nt,40.0%[activator],nt,nt,nt,-16.3%,?
CC1Cc2cc(/C(O)=C3/C(=O)C(=O)N(CCCn4ccnc4)C3c3ccc(F)cc3)ccc2O1 (stereo unspecified),nt,18.6%[46.1 µM],6.6%,-0.5%,-12.6%,-10.6%,nt,3.2%[46.1 µM]
FC(F)(F)c1cnc(NNC(=S)Nc2ccccc2Cl)c(Cl)c1,-4.3%,?,10µM*,-10.7%,-27.3%,-32.1%,-4.8%,?
Cc1cc(C(=O)NNC(=O)c2ccc(C(F)(F)F)cc2)no1,nt,18.0%[46.1 µM],20.9%,-7.5%,-1.4%,-0.2%,nt,?
COC(=O)COc1ccc(S(=O)(=O)NCCC2=CCCCC2)cc1Cl,-2.2%,-6.1%,48.6%[activator],10.8%,-35.7%,-11.0%,8.3%,24.9%
Cc1cccc(NC(=S)NC(=O)c2ccco2)n1,0.0%,18.0%,33.0%[activator],7.3%,6.0%,-7.1%,6.3%,?

# The list continues:
SMILES,Cruzain Triton,MARV entry inh,StopGo reporter,RE007 growth inh,SARS PLP yeast,NS1 function inh,Cruzain inh noDet,LASV entry inh
NC(=O)c1ccc(NC(=O)c2ccc(COc3ccccc3Br)cc2)cc1,nt,-10.7%,14.3%,13.6%,3.2%,nt,nt,15.0%
O=C(Nc1ccccc1Oc1ccccc1)c1cc([N+](=O)[O-])ccc1Cl,-6.7%,?,?,-4.9%,-31.4%,-6.4%,0.7%,-25.0%
Cc1ccc(N2CC(C(=O)Nc3cccc(F)c3)CC2=O)cc1 (stereo unspecified),-0.7%,-14.3%,nt,1.8%,10.2%,-2.8%,-9.2%,2.9%
O=C(CN1CCc2ccccc2C1)Nc1ccccc1C(F)(F)F,nt,1.2%,-29.7%,0.6%,12.0%,-4.5%,nt,-0.2%
N#C/C(C(N)=O)=C1/SC(Cc2ccc(F)cc2)C(=O)N1c1ccccc1 (stereo unspecified),nt,nt,-7.2%,7.9%,-0.1%,14.0%,nt,nt
CCCOP(=O)(OCCC)C(Nc1ccc(C(=O)O)cc1)c1ccccc1 (stereo unspecified),nt,nt,-6.2%,7.6%,-1.1%,5.5%,nt,nt
CCC(=O)Nc1ccc(-c2csc(NNC(C)=O)n2)cc1,-4.1%,?,-6.7%,10.5%,-18.5%,28.0%,-9.1%,-5.1%
CC1Cc2cc(S(=O)(=O)CCC(=O)Nc3ccc(F)cc3)ccc2N1C(=O)C1CC1 (stereo unspecified),-1.2%,nt,-13.9%,nt,nt,nt,3.9%,0.2%[46.1 µM]
